Assay outcomes deposited in PubChem by National Center for Advancing Translational Sciences (NCATS).
2A StopGo: FMDV 2A StopGo reporter, luciferase signal; human cells with a luciferase reporter of 2A StopGo recoding; control for the full effect not named in the record; Potency, µM (titrated, usually from 57.9 µM), inactives show at the top dose signal change, negative = less light; hit rate 1.2% among 410,000; AID 1159524; active = well fitted falling curve with a large enough effect; inconclusive = small, poorly fitted or top-dose-only effect; inactive = no such curve, though single readings can be large or run the other way; tested in HEK293T cells; also: % is scaled to controls: 0 for no effect and ±100 for the full control effect; nearly all actives have a fitted effect of over 45% in size; luciferase light after 4 h
NS1 function inh: influenza NS1 inhibition | S. cerevisiae slowed by influenza A NS1, growth recovery by OD600 | Potency, µM (doses to about 46.1 µM), without a hit: at the highest dose activity, positive = more growth | hit rate 0.4% among 270,000 | AID 2326; also: actives are rising curves; nearly all actives have a fitted effect of over 50% in size
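In this qHTS, NS1 from influenza A is expressed in budding yeast, where it slows growth. Cells are switched from glucose to 2% galactose medium (pH 6.0, -URA), treated with compound, and growth recovery is read at OD600.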
Cruzain inh noDet: inhibitors of Trypanosoma cruzi cruzain without detergent. Potency, µM, without a hit: max response, negative = inhibition, actives largely listed as inhibitors. hit rate 2.3% among 200,000. purified cruzain, Z-FR-AMC fluorescence, no detergent. AID 1476. P25779; active = well fitted curve in the direction sought with a large enough effect; inconclusive = small, poorly fitted or top-dose-only effect, or another doubt; inactive = no such curve, though single readings can be large; an effect the other way counts as inactive or inconclusive;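 also: plate controls were enzyme without inhibitor for no effect and buffer without enzyme for full effect; nearly all actives have a fitted effect of over 40% in size; top concentration of the series not given in the record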
Target sequence (P25779 123-467 limits assumed): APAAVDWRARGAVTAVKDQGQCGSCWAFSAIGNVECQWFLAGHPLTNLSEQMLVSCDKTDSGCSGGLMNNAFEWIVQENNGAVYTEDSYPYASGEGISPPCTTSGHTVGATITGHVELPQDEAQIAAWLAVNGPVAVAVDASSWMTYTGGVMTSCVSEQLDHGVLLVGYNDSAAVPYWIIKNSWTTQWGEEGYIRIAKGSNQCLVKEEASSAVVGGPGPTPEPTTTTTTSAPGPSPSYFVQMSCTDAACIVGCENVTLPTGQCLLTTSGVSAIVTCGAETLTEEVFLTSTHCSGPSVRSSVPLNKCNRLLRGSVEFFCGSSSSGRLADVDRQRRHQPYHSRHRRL
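Purified cruzain at 1.5 nM, pre-incubated 15 min with compound at room temperature in 100 mM sodium acetate pH 5.5, 5 mM DTT, 0.00005% Triton X-100. Reaction started with 2 uM Z-FR-AMC; AMC fluorescence increase over 60 s gives rate.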
Marburg entry inh: inhibitors of Marburg virus binding or cell entry | Marburg virus pseudotyped entry inhibition, cell reporter; control for the full effect not named in the record; about a third of the inactives were read at about 46 µM | AID 540276 | Potency, µM (series often up to 37.8 µM), without a hit: at the highest dose activity change, negative = inhibition, actives largely listed as inhibitors | hit rate 1.8% among 300,000; active = well fitted inhibition curve with a large enough effect; inconclusive = small, poorly fitted or top-dose-only effect, or effect the other way; inactive = flat fitted curve, though single readings scatter; tested in HEK293 cells; about a fifth of its hits are not listed in these tables; also: % is scaled to controls: 0 for no effect and ±100 for the full control effect; luciferase read-out
Cruzain inh Det: blocks cruzain activity in presence of Triton detergent; purified cruzain, Z-FR-AMC fluorescence, 0.01% Triton; AID 1478; Potency, µM, without a hit: max response, negative = inhibition, usual class: inhibitors; P25779; hit rate 0.43% among 200,000; active = well fitted curve in the direction sought with a large enough effect; inconclusive = small, poorly fitted or top-dose-only effect, or another doubt; inactive = no such curve, though single readings can be large; an effect the other way counts as inactive or inconclusive;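 also: plate controls were neutral wells for no effect and buffer without enzyme for full effect; nearly all actives have a fitted effect of over 40% in size; top concentration of the series not given in the record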
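15 min RT preincubation of 1.5 nM cruzain with compound, then 2 uM Z-FR-AMC added; kinetic AMC fluorescence, 60 s delta. Triton X-100 0.01%, pH 5.5.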
RE007 growth inh: less growth of the S. pombe RE007 Vpr strain; AID 651644; hit rate 0.21% among 360,000; S. pombe RE007 Vpr strain, BacTiter-Glo ATP luminescence, 24 h; control for the full effect not named in the record; Potency, µM (series often up to 92.2 µM), for inactives: at the highest dose activity change, negative = less growth; active = well fitted falling curve with a large enough effect; inconclusive = small, poorly fitted or top-dose-only effect; inactive = no such curve, though single readings can be large or run the other way;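 also: % is scaled to controls: 0 for no effect and ±100 for the full control effect; nearly all actives have a fitted effect of over 50% in size; the assay follows cell death caused by Vpr and the record does not say whether a fall means rescue or toxicity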
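Fission yeast strain RE007, carrying one chromosomally integrated HIV-1 vpr copy, was seeded at OD 0.01 in PMG+AL medium with 23 nL pinned compound. After 24 h at 30 °C and 99% humidity, viability was read by BacTiter-Glo luminescence.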
Lassa entry inh: inhibitors of Lassa virus binding or cell entry. hit rate 1.2% among 300,000. AID 540256. Lassa virus pseudotype entry inhibition, cell reporter; control for the full effect not named in the record. Potency, µM (top dose mostly 37.9 µM), for the others: at the top dose activity change, negative = inhibition, usual class: inhibitors; active means well fitted inhibition curve with a large enough effect; inconclusive means small, poorly fitted or top-dose-only effect, or effect the other way; inactive means flat fitted curve, though single readings scatter; tested in HEK293 cells; also: % is scaled to controls: 0 for no effect and ±100 for the full control effect; nearly all actives have a fitted effect of over 50% in size; luciferase read-out
SARS PLpro yeast: blocks SARS-CoV papain-like protease in a yeast assay. S. cerevisiae expressing SARS-CoV PLpro, growth rescue; control for the full effect not named in the record. Potency, µM (highest dose often 32.9 µM), without a hit: at the highest dose activity, positive = growth rescue. hit rate 0.19% among 330,000. AID 485353; also: 0% is about no effect; nearly all actives have a fitted effect of over 55% in size; growth read by luminescence after 48 h
The depositor's hits bear a star; [ ] = dose if it differs, or a comment. Unless noted, calls follow the shape of the dose curve; as a rule, active means well fitted rising curve with a large enough effect; inconclusive means small, poorly fitted or top-dose-only effect; inactive means no such curve, though single readings can be large or run the other way. Potency is read from the fitted curve at half-maximal effect. Random draw from the library; any-hit rate near 4.7%.

What do the screens show for `CC(C)(C)N(Cc1ccccc1)C(=O)c1ccc(Br)o1`?
2A StopGo: inconclusive; NS1 function inh: -2%; Marburg entry inh: 1%; RE007 growth inh: 2%; Lassa entry inh: 2%; SARS PLpro yeast: 3%

What do the screens show for `COc1ccc(NS(=O)(=O)c2cccs2)c(OC)c1`?
2A StopGo: 2%; NS1 function inh: 1%; Cruzain inh noDet: -12%; Marburg entry inh: -14%; Cruzain inh Det: 6.9%; RE007 growth inh: 13%; Lassa entry inh: 4%; SARS PLpro yeast: 3%

What do the screens show for `CC(C)(C)NC(=O)CSc1nc2ccc(NC(=O)CSc3nnc(N)s3)cc2s1`?
2A StopGo: 28µM*; NS1 function inh: 13%; Cruzain inh noDet: -10%; Marburg entry inh: inconclusive; Cruzain inh Det: -4.0%; RE007 growth inh: -9%; Lassa entry inh: 3%; SARS PLpro yeast: 7%

How did O=C(CN1C(=O)C2(SCC(=O)N2c2cccc(Cl)c2)c2ccccc21)NC1CCCCC1 (stereo not given) do in these assays?
2A StopGo: 0%; Cruzain inh noDet: -10%; Cruzain inh Det: -4.0%; Lassa entry inh: -5%[46.1 µM]

How did COc1ccc(Br)cc1CN(C)C(C)C(=O)Nc1cc([N+](=O)[O-])ccc1OC (stereo not given) do in these assays?
2A StopGo: -30%; NS1 function inh: 2%; Cruzain inh noDet: 28%; Marburg entry inh: 14µM*; Cruzain inh Det: 0.3%; RE007 growth inh: 4%; Lassa entry inh: -2%; SARS PLpro yeast: -15%

Results for COc1ccccc1N(C)S(=O)(=O)c1ccc(C(=O)NC2=NCCS2)cc1 ?
2A StopGo: -7%; NS1 function inh: -7%; Cruzain inh noDet: -8%; Marburg entry inh: -5%; Cruzain inh Det: -1.6%; RE007 growth inh: -6%; Lassa entry inh: -2%; SARS PLpro yeast: -18%

How did Cc1[nH]c2c(Cl)cccc2c(=O)c1CN1CCCC1 do in these assays?
2A StopGo: 7%; NS1 function inh: -5%[9.22 µM]; Cruzain inh noDet: -9%; Marburg entry inh: -11%; Cruzain inh Det: -6.4%; RE007 growth inh: -8%; Lassa entry inh: -11%; SARS PLpro yeast: -1%

What do the screens show for `Nn1c(SCc2nc3ccccn3c2Br)nnc1-c1cccnc1`?
2A StopGo: -14%; NS1 function inh: -7%; Cruzain inh noDet: -7%; Marburg entry inh: 26%; Cruzain inh Det: -0.3%; RE007 growth inh: 2%; Lassa entry inh: 5%; SARS PLpro yeast: 1%

What do the screens show for `CC(C)CCNC(=O)c1cnc2sc(N3CCCCCC3)nn2c1=O`?
2A StopGo: inconclusive; Cruzain inh noDet: -3%; Cruzain inh Det: -9.3%; Lassa entry inh: -15%[46.1 µM]

How did O=C(C1CCCN(S(=O)(=O)c2ccc(Br)cc2)C1)N1CCOCC1 (stereo not given) do in these assays?
2A StopGo: -30%; NS1 function inh: 8%; Marburg entry inh: 2%; RE007 growth inh: 12%; Lassa entry inh: inconclusive; SARS PLpro yeast: -3%

How did CCOC(=O)c1c(C)oc2nc(C)nc(Nc3cccc(OC)c3)c12 do in these assays?
2A StopGo: -10%; Cruzain inh noDet: -9%; Cruzain inh Det: -0.8%; Lassa entry inh: inconclusive

Results for CCN(CC)CCNC(=O)c1ccc(NC(=O)c2c(F)cccc2Cl)cc1 ?
2A StopGo: -7%; Marburg entry inh: 3%[46.1 µM]; RE007 growth inh: -7%; SARS PLpro yeast: 0%

What do the screens show for `COC(=O)C1=C(C)N(C)C(=O)NC1c1ccc(O)c(Cl)c1` (stereo not given)?
2A StopGo: -1%; NS1 function inh: 15%; RE007 growth inh: 5%; SARS PLpro yeast: 1%

Results for CN(C)C(=O)N1CCCC(C(=O)NCc2ccccc2)C1 (stereo not given) ?
NS1 function inh: -7%; Cruzain inh noDet: -2%; Marburg entry inh: 12%; Cruzain inh Det: -1.1%; RE007 growth inh: 10%; Lassa entry inh: 16%; SARS PLpro yeast: 3%

Results for O=C(CSc1nc2ccccc2n1Cc1cccc(C(F)(F)F)c1)NCc1ccccc1 ?
2A StopGo: -19%; Cruzain inh noDet: inconclusive; Cruzain inh Det: -10%; Lassa entry inh: 10%[46.1 µM]

What do the screens show for `CCS(=O)(=O)N1CCN(C(=O)c2ccc(-c3ccccc3)cc2)CC1`?
2A StopGo: -17%; NS1 function inh: -5%; Cruzain inh noDet: inconclusive; Marburg entry inh: inconclusive; Cruzain inh Det: 2.1%; RE007 growth inh: -1%; Lassa entry inh: 7%; SARS PLpro yeast: -3%

Results for Cc1ccc(CNC(=O)[C@@H](NC(=O)C2CCN(C(=O)[C@@H]3CCCN3)CC2)C(C)C)cc1 ?
2A StopGo: -12%; NS1 function inh: 7%; RE007 growth inh: 9%; SARS PLpro yeast: -2%

What do the screens show for `O=C(CCC(=O)N1CCN(S(=O)(=O)c2ccccc2)CC1)c1ccc(Br)cc1`?
2A StopGo: -11%; Marburg entry inh: -17%; RE007 growth inh: 20%; Lassa entry inh: -14%; SARS PLpro yeast: -2%

How did CNC(=O)OCCSCCS(=O)(=O)c1ccc(Cl)cc1 do in these assays?
2A StopGo: -7%; NS1 function inh: 7%; Marburg entry inh: -8%; RE007 growth inh: -2%; Lassa entry inh: 1%; SARS PLpro yeast: 1%

How did COc1ccc(OC)c(CN2CCCCCC2)c1 do in these assays?
2A StopGo: -12%; NS1 function inh: -2%; Marburg entry inh: inconclusive; RE007 growth inh: -4%; Lassa entry inh: 3%[46.1 µM]; SARS PLpro yeast: 3%

How did COc1ccc(S(=O)(=O)NCc2ccc(C(=O)N3CCN(c4ccccn4)CC3)cc2)cc1 do in these assays?
2A StopGo: inconclusive; NS1 function inh: -33%; Cruzain inh noDet: 7%; Marburg entry inh: -22%; Cruzain inh Det: 2.8%; RE007 growth inh: -15%; Lassa entry inh: inconclusive; SARS PLpro yeast: -16%

Results for Cc1ccc(CSc2cn(CC(=O)N3CCCC3)c3ccccc23)cc1 ?
2A StopGo: 21%; Cruzain inh noDet: inconclusive; Cruzain inh Det: -11%; Lassa entry inh: -14%[46.1 µM]

Results for COc1ccc(OC)c(-c2cc(C(=O)Nc3sc4c(c3C#N)CCC(C)C4)c3ccccc3n2)c1 (stereo not given) ?
2A StopGo: 15%; NS1 function inh: 12%; Cruzain inh noDet: inconclusive; Marburg entry inh: -1%; Cruzain inh Det: 0.8%; RE007 growth inh: 10%; Lassa entry inh: 11%; SARS PLpro yeast: 3%

Results for CCn1c(CCC(=O)Nc2ccccc2F)nnc1SCC(=O)Nc1ccc(OC)cc1 ?
2A StopGo: 10%; NS1 function inh: -16%; Marburg entry inh: 13%; RE007 growth inh: -19%; Lassa entry inh: 2%; SARS PLpro yeast: 4%

Results for CN(CC(=O)Nc1ccc(F)c(F)c1F)c1ncnc2sccc12 ?
2A StopGo: -10%; Marburg entry inh: 11%[46.1 µM]; RE007 growth inh: 0%; Lassa entry inh: -3%[46.1 µM]; SARS PLpro yeast: -4%

How did CN(C(=O)COC(=O)c1ccc2c(=O)n3c(nc2c1)CCC3)c1ccccc1 do in these assays?
2A StopGo: -16%; NS1 function inh: 5%; Cruzain inh noDet: 7%; Marburg entry inh: 12%; Cruzain inh Det: -4.8%; RE007 growth inh: 2%; Lassa entry inh: 10%; SARS PLpro yeast: 2%

Results for O=C1CSc2ccc(S(=O)(=O)N3CCN(c4ccccc4F)CC3)cc2N1 ?
2A StopGo: inconclusive; NS1 function inh: -4%; RE007 growth inh: -4%; SARS PLpro yeast: 0%

How did COc1ccccc1N1CCN(C(=O)c2cc3ccccc3[nH]2)CC1 do in these assays?
2A StopGo: -25%; NS1 function inh: -1%; RE007 growth inh: 4%; SARS PLpro yeast: -3%

What do the screens show for `Cc1cccc(NC(=O)CNC(=O)CSc2ncccn2)c1C`?
2A StopGo: -14%; Marburg entry inh: -2%; RE007 growth inh: -11%; Lassa entry inh: -11%; SARS PLpro yeast: -3%

How did O=C(NN=Cc1ccc(N(CCCl)CCCl)cc1)c1cc(=O)[nH]c(=O)[nH]1 do in these assays?
2A StopGo: -18%; Marburg entry inh: inconclusive; RE007 growth inh: 12%; Lassa entry inh: inconclusive

Results for O=C(CSc1nc2c([nH]c3ccccc32)c(=O)n1-c1cccc(C(F)(F)F)c1)N1CCCC1 ?
2A StopGo: -17%; Cruzain inh noDet: -9%; Cruzain inh Det: -1.5%; Lassa entry inh: 14%[46.1 µM]

How did Cc1ccc(N2C(=O)NC(=O)/C(=C\c3cc(C)n(-c4ccc(C(=O)O)cc4)c3C)C2=O)cc1 do in these assays?
2A StopGo: 4%; NS1 function inh: 3%; Marburg entry inh: 29%[46.1 µM]; RE007 growth inh: 14%; Lassa entry inh: 12%[46.1 µM]; SARS PLpro yeast: 5%

Results for CCOC(=O)C1=C(c2ccccc2)NC(SCC(=O)Nc2cccc(C)c2)=C(C#N)C1c1ccco1 (stereo not given) ?
2A StopGo: -10%; NS1 function inh: inconclusive; Cruzain inh noDet: -27%; Marburg entry inh: inconclusive; Cruzain inh Det: -1.0%; RE007 growth inh: 16%; Lassa entry inh: -13%; SARS PLpro yeast: 9%

Results for Cc1ccc(OCC(=O)Nc2ccc(S(=O)(=O)Nc3cc(C)nc(C)n3)cc2)c(C)c1 ?
2A StopGo: 36%[activator]; Marburg entry inh: 4%[46.1 µM]; RE007 growth inh: 7%; Lassa entry inh: 18%; SARS PLpro yeast: 4%
